Rango complex inh: prevents formation of the Rango-importin beta complex; actives 0.031% (n = 340,000); Potency, µM (doses to about 92.2 µM), inactives show at the top dose inhibition of complex formation; Rango CFP/YFP FRET sensor + importin beta, 45 min; Q14974; active = rising FRET ratio curve, often small or poorly fitted; inconclusive = mostly compound fluorescence or quenching in the first reads; inactive = flat curves in all reads;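 further: potency means the concentration at half of the fitted maximal effect; 0% = DMSO wells and 100% = buffer wells lacking importin beta; nearly all actives have a fitted effect of over 15% in size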
Target sequence (Q14974 whole entry, looked up): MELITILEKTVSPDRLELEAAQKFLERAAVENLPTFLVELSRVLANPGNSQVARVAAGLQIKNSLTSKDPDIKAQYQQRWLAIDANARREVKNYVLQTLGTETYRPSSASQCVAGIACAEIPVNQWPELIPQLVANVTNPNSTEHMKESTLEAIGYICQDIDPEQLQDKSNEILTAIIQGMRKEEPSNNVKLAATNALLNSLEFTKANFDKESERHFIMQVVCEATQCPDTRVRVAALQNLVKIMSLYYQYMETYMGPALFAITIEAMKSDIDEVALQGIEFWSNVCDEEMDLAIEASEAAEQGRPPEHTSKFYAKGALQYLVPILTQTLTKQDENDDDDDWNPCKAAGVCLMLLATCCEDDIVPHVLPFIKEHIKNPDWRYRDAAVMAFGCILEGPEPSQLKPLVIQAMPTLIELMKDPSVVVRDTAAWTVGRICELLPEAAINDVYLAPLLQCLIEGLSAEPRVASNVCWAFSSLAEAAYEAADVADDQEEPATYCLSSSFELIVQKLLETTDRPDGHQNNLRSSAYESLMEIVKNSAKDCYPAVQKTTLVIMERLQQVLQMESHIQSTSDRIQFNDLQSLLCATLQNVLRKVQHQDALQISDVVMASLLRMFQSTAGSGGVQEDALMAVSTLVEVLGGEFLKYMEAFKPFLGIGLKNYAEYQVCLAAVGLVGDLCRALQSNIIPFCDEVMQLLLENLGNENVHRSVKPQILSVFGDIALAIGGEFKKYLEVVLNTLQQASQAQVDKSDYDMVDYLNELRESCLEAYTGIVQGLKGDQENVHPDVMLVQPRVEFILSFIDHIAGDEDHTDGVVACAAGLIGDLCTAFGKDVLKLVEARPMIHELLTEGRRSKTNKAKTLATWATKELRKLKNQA
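FRET biosensor (snurportin 1 IBB flanked by EYFP and cerulean), 50 nM, with compound 5 min, then 0.125 microM importin beta in PBS, 1 mM DTT, 0.02% Tween-20, 0.1% BSA. CFP/YFP ratio read after 45 min at room temperature; pre-read flags interference.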
Rango dissoc inh: inhibition of RanGTP-driven Rango-importin beta dissociation; Potency, µM (top dose mostly 46.1 µM), inactives show top-dose activity change, negative = inhibition; actives 0.071% (n = 340,000); O95149+P62826; Biochemical FRET Rango-importin beta, RanGTP-induced dissociation; active means falling FRET ratio curve, often poorly fitted, with flat reads before Ran was added; inconclusive means other falling curves, or compound fluorescence or quenching; inactive means flat or rising ratio curve;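 further: potency means the concentration at half of the fitted maximal effect; % of control where 0% means no effect; nearly all actives have a fitted effect of over 45% in size; -100% = wells without RanGTP and RCC1; the record marks most hits as doubtful in a second field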
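Rango (0.1 uM)–importin beta (0.25 uM) complex; RanGTP-RCC1 trigger; 45 min RT; CFP/YFP FRET read.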
miR-21 FLuc: miR-21 reporter, rising signal. HeLa miR-21 FLuc reporter, luciferase, 48 h. Potency, µM (series often up to 38.3 µM), without a hit: top-dose reporter change, positive = more light. 340,000 tested, under 10 active. AID 2288; active = well fitted rising curve with a large enough effect; inconclusive = small, poorly fitted or top-dose-only effect; inactive = no such curve, though single readings can be large or run the other way;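 further: % of control where 0% means no effect; miR-21 action dims this reporter so a rising signal means less miR-21 action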
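Compounds were titrated across several concentrations (up to approximately 40 uM) and incubated 48 hours with HeLa miR-21-FLuc reporter cells (miR-21 target sequence downstream of FLuc, endogenous miR-21). Readout was firefly luciferase luminescence after lytic detection reagent.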
GLA inh pH 4.5: alpha-galactosidase A (human) inhibition, pH 4.5 | P06280 | purified enzyme, 4-MU-alpha-Gal fluorescence, pH 4.5 | activity change, negative = inhibition, % at 105 µM | 230,000 tested, under 10 active; inconclusive = small, poorly fitted or top-dose-only inhibition, or a rising curve; inactive = flat fitted curve, though single readings scatter; no compound was filed as active;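 further: 0% = full activity with enzyme and -100% = basal without enzyme; dose as in the result columns while the protocol names 77 µM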
* = called active by the depositor; ? = inconclusive; . = not tested or not shown. An excerpt; rates above refer to the full screens.

Order of results: Rango complex inh, Rango dissoc inh, miR-21 FLuc, GLA inh pH 4.5
COc1cccc(C=CC(=O)C=CC=Cc2ccccc2)c1
→ ?, -8%, ., .
CCn1nc(C)c(CNC(=O)CC2C(=O)NCCN2Cc2ccc(C)o2)c1C (centres undefined)
→ -2.1%, 14%, 3%, 4
O=C1C=C(N2CCN(c3ccccn3)CC2)C(=O)c2c(O)ccc(O)c21
→ 2.5%, 1%, ., .
Cc1ccc(C(C)C)c(OCC(=O)OCC(=O)c2c(N)n(C)c(=O)n(C)c2=O)c1
→ -4.4%, -3%, ., .
CCN(CC)CC(=O)NN=C(c1ccccc1)c1ccccc1
→ 4.1%, -3%, -7%, 6
Cc1nc2ccc(S(=O)(=O)NCC(=O)Nc3ccc(F)cc3)cc2s1
→ -2.9%, -1%, -1%, .
CC(CN1CCNCC1)(NS(=O)(=O)c1ccccc1)c1ccccc1 (centres undefined)
→ 0.2%, -12%, -7%, 5
Cc1ccc(/C=N/Nc2ncc(Cl)cc2Cl)s1
→ 2.4%, -5%, -65%, 0
O=C(COc1ccccc1[N+](=O)[O-])OCC(=O)c1ccc(Br)s1
→ -0.8%, 31%, ., .
Cc1oc(-c2ccc(Cl)cc2)nc1CS(=O)CC(=O)NCCN1CCCC1 (centres undefined)
→ 0.8%, 0%, -4%, -2
O=C(O)c1ccc(NC(=S)NC2CCCCC2)cc1
→ 1.0%, 3%, -13%, 8
O=C1OC(c2ccccc2)/C(=C(/O)c2ccc(Cl)cc2)C1=O (centres undefined)
→ -0.3%, 4%, -11%, -2
COc1ccc(Oc2nc(C)cc(C)c2C#N)cc1
→ -0.3%, -23%, -9%, -2
COc1ccccc1N(C(=O)c1ccncc1)c1nc(-c2ccc([N+](=O)[O-])cc2)cs1
→ -3.5%, 0%, -4%, -3
Cc1nn(CC(=O)N2CCN(c3ccccn3)CC2)c(=O)c2cc3sccc3n12
→ 0.3%, -12%, 0%, .
NS(=O)(=O)c1ccc(NS(=O)(=O)c2ccc(NC(=O)C3CC3)cc2)cc1
→ 0.2%, -1%, -2%, .
CCCCNC(=O)[C@@H]1CCCN1S(=O)(=O)c1cccc2cccnc12
→ ?, 9%, ., .
CCC(C)NC(=O)Cc1cn(C)c2ccccc12 (centres undefined)
→ 0.0%, 5%, -4%, 3
COc1ccc(CCN2C(=O)CC(Cc3ccc(C)cc3)C2=O)cc1OC (centres undefined)
→ -3.6%, -2%, 3%, -4
CCC(=O)N1CCN(c2ccc(Cl)cc2NC(=O)c2ccc(N3CCCC3)c([N+](=O)[O-])c2)CC1
→ 4.2%, 0%, 0%, -5
O=C(NCCc1ccccc1)C1CCCN1C(=O)NCc1ccccc1 (centres undefined)
→ 0.6%, -3%, -8%, 2
CCCn1c(=N)n(CC(=O)c2ccc([N+](=O)[O-])cc2)c2ccccc21
→ 0.8%, -3%, 4%, -12
Cc1ccc(Cl)cc1N1CCN(C(=O)c2ccccc2SCC(=O)N2CCCC2)CC1
→ 4.4%, -4%, ., .
O=C(NCc1ccccc1)c1ccc(F)c(S(=O)(=O)N2CCOCC2)c1
→ 5.6%, -4%, -8%, 5
CCOC(=O)c1c(C)nc2c(c1C)/C(=N/O)CC(C)(C)C2
→ -2.5%, -5%, 3%, 5
CCCc1nnc(NC(=O)CCS(=O)(=O)c2ccccc2)s1
→ -2.3%, -16%, 9%, .
COc1cc([N+](=O)[O-])ccc1NC(=O)Cc1ccc(F)cc1
→ 0.5%, 1%, -9%, -5
Oc1cncc(-c2cccnc2)c1
→ 2.3%, -5%, ., .
O=c1cc(CN2CCN(c3cccc(C(F)(F)F)c3)CC2)nc2sccn12
→ -0.5%, 21%, 5%, -12
CC12CCC(C(=O)Nc3ncc([N+](=O)[O-])s3)(OC1=O)C2(C)C (centres undefined)
→ -1.3%, 5%, -1%, -1

Later entries:
Order of results: Rango complex inh, Rango dissoc inh, miR-21 FLuc, GLA inh pH 4.5
COc1cccc(NS(=O)(=O)c2cc3c(cc2C)NC(=O)CO3)c1
→ 0.7%, -7%, 4%, .
COc1ccccc1CN(CC(=O)NCc1ccco1)C(=O)CNS(=O)(=O)c1ccccc1
→ ?, 17%, -1%, -1
CC1=NN(c2ccccc2)C(=O)C1N=Nc1ccc(N)cc1 (centres undefined)
→ 7.4%, 8%, -9%, -6
COc1ccc(CCC(=O)NCCOc2ccccc2Cl)cc1
→ 0.5%, 1%, ., .
Cc1nc(SCC(=O)Nc2ccccc2)c2oc3ccccc3c2n1
→ 5.8%, -1%, -6%, 1
CCCC(=O)NC(=S)NNC(=O)c1ccc([N+](=O)[O-])cc1
→ -2.6%, 1%, -7%, 1
Cc1nnsc1C(=O)NNc1c(Cl)cccc1Cl
→ -1.6%, 14%, -9%, -4
CCOC(=O)c1c(C)c(C(=O)NCCCOC(C)C)c(C)n1C
→ 6.4%, -10%, -7%, -7
COc1ccc(Nc2oc(COc3ccc(C)cc3)nc2C#N)cc1
→ -1.2%, 1%, ?, 1
COc1cccc(CC(=O)NC2CCCN(Cc3ccc(Cl)cc3)C2)c1 (centres undefined)
→ 5.6%, 21%, 5%, .
COc1ccc2c(Cl)c(C(=O)NCCCn3ccnc3)sc2c1Cl
→ 0.0%, 2%, -19%, -1
CC(OC(=O)C1=NNC(=O)CC1)C(=O)Nc1ncc(Cl)cc1Cl (centres undefined)
→ -1.3%, 8%, 3%, 11
O=C(NC(Cc1ccccc1)C(=O)O)/C(=C/c1ccccc1)NC(=O)c1ccco1 (centres undefined)
→ ?, ?, 1%, .
CCOC(=O)C1CCCN(C(=O)c2ccc3c(c2)OCCO3)C1 (centres undefined)
→ -0.5%, 28%, ., .
O=C(c1ccc2c(=O)n(Cc3ccccc3)c(=S)[nH]c2c1)N1CCOCC1
→ 5.5%, 31%, 0%, .
CN(C(=O)c1cc2n(n1)C(C(F)(F)F)CC(c1ccco1)N2)c1ccc(OC(F)(F)F)cc1 (centres undefined)
→ -4.3%, -5%, 0%, -5
CCOc1ccc2nc(SCC(=O)NNC(=O)c3ccco3)c(C)cc2c1
→ -0.6%, -17%, -12%, .
O=C(OC(C(=O)NCC1CCCO1)c1ccc(F)cc1)c1ccco1 (centres undefined)
→ -3.0%, ?, 0%, -12
CNC(=O)c1ccc(N(Cc2ccccc2)S(C)(=O)=O)cc1
→ -0.8%, -11%, 2%, 8
CC(Sc1nn(-c2ccccc2)c(=S)s1)C(=O)NCC1CCCO1 (centres undefined)
→ 2.8%, -9%, ., .
Cc1ccc(C(=O)OCC(=O)Nc2c(Cl)cc(S(N)(=O)=O)cc2Cl)o1
→ 1.5%, 2%, -1%, 2
CC(C)N(Cc1nnc(-c2ccccc2Cl)o1)C(=O)c1cccc(C#N)c1
→ ., ., -18%, -25
CC(C)CC(C(=O)Nc1ccccc1)N1C(=O)C2C3C=CC(C3)C2C1=O (centres undefined)
→ 5.8%, 1%, 0%, 5
CN(C)S(=O)(=O)c1cccc(NC(=S)N/N=C/c2ccc(O)c(O)c2O)c1
→ ?, -13%, -1%, -16
COC(=O)CCN(C(=O)C12CC3CC(CC(C3)C1)C2)c1ccccn1
→ 2.2%, -1%, -1%, -1
COc1ccc(OC)c(N(CC(=O)NC2CC2)S(=O)(=O)c2ccc(C)cc2)c1
→ 2.7%, -1%, -1%, 6
CN(C)/C=C(/C(=O)c1ccc(Cl)c(Cl)c1)S(C)(=O)=O
→ -3.5%, 1%, 0%, 5
C=CCN1C(=O)c2ccc(C(=O)N(C)Cc3ccc(C)o3)cc2C1=O
→ -1.7%, 1%, ., .
O=C(CCC1CCCN(C(=O)c2cccs2)C1)N1CCN(c2ccccn2)CC1 (centres undefined)
→ -1.0%, -9%, -2%, -2
Cc1cc(C)c2cc(C(=O)N3CCC(N4CCCCC4)CC3)[nH]c2c1
→ -0.5%, -4%, 4%, .

Next compounds:
Order of results: Rango complex inh, Rango dissoc inh, miR-21 FLuc, GLA inh pH 4.5
O=C(Nc1ccnn1C1CCN(Cc2ccn[nH]2)CC1)c1ccccc1
→ 4.8%, 10%, -3%, .
COc1cc(C=O)ccc1OCCSc1ccc(Cl)cc1
→ -0.6%, 0%, -29%, 9
O=C1CC(C(=O)N2CCN(c3ccccc3O)CC2)CN1Cc1ccccc1 (centres undefined)
→ 1.0%, -2%, ., .
CC(NC(=O)Cc1ccc(S(=O)(=O)N2CCOCC2)s1)c1ccc(Br)cc1 (centres undefined)
→ -4.1%, 3%, ., .
CCOC(=O)c1cc(NC(=O)Nc2ccccn2)c(C)nc1C
→ 0.4%, -8%, -11%, 1
CC(=O)Nc1ccc(NC(=O)CCN2C(=O)c3ccccc3C2=O)cc1
→ 0.3%, 19%, 1%, .
COC(=O)c1cc(-c2ccc(C)o2)nc2ccccc12
→ ?, ?, -8%, .
Cc1c(S(=O)(=O)N2CCN(c3ccc(F)cc3)CC2)c(=O)n(C)c(=O)n1C
→ -4.5%, -7%, 2%, .
Cn1c(=O)c2c(nc(NCc3cccnc3)n2Cc2ccc(Cl)cc2)n(C)c1=O
→ -1.3%, 19%, 6%, -8
N/C(=N\NC(=O)Nc1ccc(Cl)cc1)c1ccccn1
→ 2.2%, 1%, -68%, -2
CN(C(=O)c1ccc(NC(=O)Cc2cccc(NC(=O)C3CCN(C(=O)C4CCC4)CC3)c2)cc1)C1CCCC1
→ 1.9%, -5%, ., .
COCCCNC(=O)CCc1nc(-c2ccccc2Cl)no1
→ -5.1%, 1%, 0%, 6
COC(=O)c1c(NC(NC(=O)C(C)C)C(Cl)(Cl)Cl)sc2c1CCCC2 (centres undefined)
→ -0.6%, 16%, 17%, -11
CCOC(=O)c1c(NC(C)=O)sc2c1CCC(C=NCCCN(CC)CC)=C2Sc1ccccc1
→ ?, ?, ., .
Cc1cc([N+](=O)[O-])ccc1N
→ 1.0%, 9%, ., .
Cc1ccc(NC(=O)COC(=O)Cc2cccs2)c(Br)c1
→ 2.0%, -3%, -13%, .
O=C(Nc1ccccc1)O/N=C/c1ccccc1Cl
→ -2.6%, 0%, -22%, -9
CN1C(=O)c2cccc3c(N(C)C)ccc(c23)C1=O
→ ?, ?, -10%, .
COc1ccc(CNc2nc(-c3cccnc3)nn2C(=O)c2ccco2)cc1
→ -0.9%, 1%, -4%, -8
CC(=O)N1CCCc2cc(S(=O)(=O)NCc3ccc(C)cc3)ccc21
→ -0.2%, -5%, -1%, -9
Cc1ccc(/C=C(/C#N)c2nc(CCN3C(=O)c4ccccc4C3=O)cs2)cc1
→ -1.0%, 0%, 0%, -3
Cc1ccc(C(C)C)c(OCc2nn(CC(=O)c3ccc(Cl)cc3)c3[n+]2CCCCC3)c1
→ 1.8%, 6%, ?, -4
CN(Cc1ccc(F)cc1)C(=O)COc1ccccc1-c1ccccc1
→ 3.2%, 0%, -8%, -13
O=C(NCCCN1CCOCC1)c1sc2cc(F)ccc2c1Cl
→ 5.0%, 1%, -34%, 4
COc1ccc(CCNC(=O)CN(Cc2ccc(Cl)cc2)S(C)(=O)=O)cc1OC
→ -0.5%, -6%, 0%, .
COc1cccc(C(=O)Nc2cc(C)ccc2NC(=O)COc2ccccc2)c1
→ 1.2%, -4%, -4%, 7
CCCN(CC(=O)Nc1ccc(Cl)cc1Cl)C(=O)CC(NC(C)=O)c1ccccc1 (centres undefined)
→ -1.1%, -3%, 0%, .
NNC(=O)CCCCCCCCCCOCCCCO
→ 0.0%, 15%, 0%, ?

Quoted at random: 2 entries already listed, in no set order.
Order of results: Rango complex inh, Rango dissoc inh, miR-21 FLuc, GLA inh pH 4.5
CCOC(=O)c1cc(NC(=O)Nc2ccccn2)c(C)nc1C
→ 0.4%, -8%, -11%, 1
COC(=O)c1c(NC(NC(=O)C(C)C)C(Cl)(Cl)Cl)sc2c1CCCC2 (centres undefined)
→ -0.6%, 16%, 17%, -11

Part of the list above in a different format.
structure | Rango complex inh | Rango dissoc inh | miR-21 FLuc | GLA inh pH 4.5
COC(=O)c1c(NC(NC(=O)C(C)C)C(Cl)(Cl)Cl)sc2c1CCCC2 (centres undefined) | -0.6% | 16% | 17% | -11
CCOC(=O)c1c(NC(C)=O)sc2c1CCC(C=NCCCN(CC)CC)=C2Sc1ccccc1 | ? | ? | . | .
Cc1cc([N+](=O)[O-])ccc1N | 1.0% | 9% | . | .

Assay outcomes from PubChem.
